Screens (PubChem)
TAAR1 antagonist = human TAAR1 antagonists, primary screen, Fluo-8 calcium fluorescence, CHO RD-HGA16 cells; inhibition, % at 3 µM; hit rate 1.5% among 360,000; Trace amine-associated receptor 1 (Homo sapiens), Q96RJ0; antagonist; AID 624466, 2012;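 active = inhibition above a per-plate cutoff, the mean inhibition of test compounds on that plate plus 3 SD, cut at about 49% in these data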;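 also: 0% = DMSO plus EC80 beta-PEA response and 100% = DMSO alone without agonist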
Target sequence (Q96RJ0 whole entry, looked up): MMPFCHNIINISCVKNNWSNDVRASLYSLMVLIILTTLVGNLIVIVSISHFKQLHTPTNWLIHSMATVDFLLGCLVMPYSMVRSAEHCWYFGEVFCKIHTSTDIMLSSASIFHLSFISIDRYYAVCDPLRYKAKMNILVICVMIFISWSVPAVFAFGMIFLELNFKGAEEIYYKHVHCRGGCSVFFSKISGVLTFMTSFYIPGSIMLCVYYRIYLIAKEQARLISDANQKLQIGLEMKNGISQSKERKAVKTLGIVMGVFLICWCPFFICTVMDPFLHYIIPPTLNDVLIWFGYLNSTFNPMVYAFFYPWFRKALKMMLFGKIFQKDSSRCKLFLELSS
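System: RD-HGA16 CHO cells with stable hTAAR1 and Gα16 | Probe or stimulus: EC80 β-phenethylamine stimulus | Dosing: 3 µM, single point | Times: Dye loading 75 min at 37 °C, then 30 min room temperature | Measured by: Fluo-8 calcium-sensitive fluorescence | Read-out basis: % inhibition of agonist calcium response | Replicates: n of 1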
CHO parental Ca = ATP-evoked calcium signal inhibitors, parental CHO, primary screen, counter-screen for OX1R antagonist project, cell-based, fluorescence, Fluo-8 calcium dye. parental CHO-K1, ATP-induced calcium, Fluo-8 fluorescence. inhibition, % at 5.6 µM. hit rate 0.63% among 330,000. AID 463079, 2010;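 active = inhibition above that plate's mean sample inhibition plus 3 SD, cut at about 26% in these data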;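 also: 0% = ATP-challenged DMSO wells and 100% = DMSO wells without ATP; some compounds past the cut are filed as inactive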
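Material – parental CHO cells · Reagent – ATP stimulus · Compound – single nominal dose of 5.6 µM per compound · Detection – Fluo-8 fluorescence · Read-out basis – percent inhibition of calcium signal · Controls – ATP-challenged DMSO wells low, unchallenged DMSO wells high · Repeats – no replicates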
OXTR potentiate = human OXTR potentiators, primary screen, fluorescence, CHO-OTR cells, Fluo-8 calcium. Oxytocin receptor (Homo sapiens), P30559. Fluo-8 calcium fluorescence, potentiator mode; 0% = oxytocin EC15, 100% = EC100. activation, % at 3 µM. hit rate 0.061% among 320,000;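 active = activation above that plate's cutoff, the mean activation of tested compounds plus 3 SD, cut at about 6.6% in these data, passing the limit was not always enough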;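 also: 100% uses oxytocin at 75 nM as the full agonist control; some results filed as inactive read as strong as hits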
Target sequence (P30559 whole entry, looked up): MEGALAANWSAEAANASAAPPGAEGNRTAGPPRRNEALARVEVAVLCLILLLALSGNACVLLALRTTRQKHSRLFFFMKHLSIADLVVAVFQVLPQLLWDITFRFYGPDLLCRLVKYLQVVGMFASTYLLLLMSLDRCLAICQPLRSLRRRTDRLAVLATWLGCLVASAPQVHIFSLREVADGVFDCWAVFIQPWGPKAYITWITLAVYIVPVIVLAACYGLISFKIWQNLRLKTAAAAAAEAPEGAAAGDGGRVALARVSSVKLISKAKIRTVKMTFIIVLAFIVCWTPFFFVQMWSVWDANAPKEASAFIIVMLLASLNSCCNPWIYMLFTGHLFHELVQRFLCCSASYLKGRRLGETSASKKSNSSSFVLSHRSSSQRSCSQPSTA
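Measured by – Fluo-8 calcium dye fluorescence · Test system – human OTR in CHO cells · Dosing – one concentration, 3.0 µM compound · Controls – EC15 oxytocin alone as 0%, 75 nM oxytocin as 100% · Evaluation – normalized max/min fluorescence ratio, % activation · Timing – 6 min pre-incubation, 100 s read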
Starred values were filed as active, the others as inactive; · = no result given; & = joins results of further samples. These rows are one share of the data; rates above refer to the full screens.

entry | smiles | TAAR1 antagonist | CHO parental Ca | OXTR potentiate
1 | O=C(O)CCNC(=O)c1ccccc1 | -6.7 | 0.1 | -4.1
2 | CN/C(=C\[N+](=O)[O-])NCCSCc1csc(CN(C)C)n1 | 7.1 | 4.1 | -14.9
3 | Nc1ccn([C@@H]2O[C@H](CO)[C@@H](O)C2O)c(=O)n1 (stereo partly drawn) | -12.3 | 7.7 | 1.0
4 | CC(C)(C(=O)O)c1ccc(C(O)CCCN2CCC(C(O)(c3ccccc3)c3ccccc3)CC2)cc1 (stereo not drawn) | -20.1 | -7.7 | -7.0
5 | CN=C(C[N+](=O)[O-])NCCSCc1ccc(CN(C)C)o1 | -7.9 | -3.5 | -5.1
6 | COc1cc(CNC(=O)CCCC/C=C\C(C)C)ccc1O | · | -3.8 | -9.7
7 | CC(C)(C)CC(C)(C)c1ccc(OCCOCC[N+](C)(C)Cc2ccccc2)cc1 | 3.3 | 12.5 | -7.7
8 | CCCCNc1cc(C(=O)O)cc(S(N)(=O)=O)c1Oc1ccccc1 | -25.4 | 1.0 | -2.5
9 | CC(C)[N+]1(C)[C@@H]2CC[C@@H]1CC(OC(=O)C(CO)c1ccccc1)C2 (stereo partly drawn) | -12.3 | 1.6 | -1.0
10 | COc1cc(OC)c(C(=O)CCCN2CCCC2)c(OC)c1 | 3.2 | -8.2 | -16.2
11 | Cc1ncc([N+](=O)[O-])n1CCO | -9.4 | -4.8 | -1.3
12 | O=C(O)/C=C\C(=O)O | -19.9 | -1.5 | -1.4
13 | CN1[C@@H]2CCC[C@H]1CC(NC(=O)c1nn(C)c3ccccc13)C2 (stereo partly drawn) | -0.2 | -10.4 | -0.5
14 | C[C@H](C(=O)O)c1cccc(C(=O)c2ccccc2)c1 | -8.3 | -4.7 | -5.7
15 | Cc1ccc(S(=O)(=O)NC(=O)NN2CCCCCC2)cc1 | -2.2 | -10.7 | -2.4
16 | CC(=O)O[C@H]1C(=O)[C@@]2(C)[C@H]([C@H](OC(=O)c3ccccc3)[C@]3(O)C[C@H](OC(=O)[C@H](O)C(NC(=O)c4ccccc4)c4ccccc4)C(C)=C1C3(C)C)[C@]1(OC(C)=O)CO[C@@H]1C[C@@H]2O (stereo partly drawn) | 0.2 | -1.3 | -5.7
17 | CN1C2CC(OC(=O)C(CO)c3ccccc3)CC1C1OC12 (stereo not drawn) | -17.4&6.7&-5.8 | -6.3&-5.6 | 2.2&-7.4
18 | C#C[C@]1(O)CC[C@H]2[C@@H]3CCc4cc(OC)ccc4[C@H]3CC[C@@]21C | 13.7 | 2.1 | -8.5
19 | Cc1cc2cc3c(C)cc(=O)oc3c(C)c2o1 | -10.3 | -2.5 | -1.5
20 | COc1ccc([C@@H]2Sc3ccccc3N(CCN(C)C)C(=O)[C@@H]2OC(C)=O)cc1 | -0.3 | -9.8 | -0.1
21 | CC(C)NCC(O)COc1cccc2ccccc12 (stereo not drawn) | -3.5 | -9.7 | -5.0
22 | CN/C(=C/[N+](=O)[O-])NCCSCc1ccc(CN(C)C)o1 | -7.1 | 4.5 | -1.2
23 | CC(N)C12CC3CC(CC(C3)C1)C2 (stereo not drawn) | -6.0&-10.2 | -2.4&-5.2 | -3.1&0.9
24 | CCCC(=O)Nc1ccc(OCC(O)CNC(C)C)c(C(C)=O)c1 (stereo not drawn) | -10.2 | -5.8 | -1.1
25 | CN1C2CCC1CC(OC(=O)c1c[nH]c3ccccc13)C2 (stereo not drawn) | -17.3&6.0 | -4.1&4.6 | -7.1&0.8
26 | COC1=CC(=O)C[C@@H](C)[C@]12Oc1c(Cl)c(OC)cc(OC)c1C2=O | -18.5 | -9.4 | -5.9
27 | CCOC(=O)c1ncn2c1CN(C)C(=O)c1cc(F)ccc1-2 | -0.7 | -10.5 | -2.3
28 | COC(=O)[C@@H]1[C@H]2C[C@H]3c4[nH]c5ccccc5c4CCN3C[C@@H]2CC[C@@H]1O | 6.5 | -18.0&-14.5 | 8.6&-8.3
29 | CC1(C)S[C@@H]2[C@H](NC(=O)[C@H](N)c3ccccc3)C(=O)N2[C@H]1C(=O)O | 0.8&-6.1 | 15.1&-2.3 | -5.8&-10.4
30 | CC1(C)O[C@@H]2CC3C4C[C@H](F)C5=CC(=O)C=CC5(C)C4C(O)CC3(C)[C@]2(C(=O)CO)O1 (stereo partly drawn) | 0.1 | -0.2 | -9.3

Part of the list above in order of molar mass, low to high.
entry | smiles | TAAR1 antagonist | CHO parental Ca | OXTR potentiate
19 | Cc1cc2cc3c(C)cc(=O)oc3c(C)c2o1 | -10.3 | -2.5 | -1.5
27 | CCOC(=O)c1ncn2c1CN(C)C(=O)c1cc(F)ccc1-2 | -0.7 | -10.5 | -2.3
22 | CN/C(=C/[N+](=O)[O-])NCCSCc1ccc(CN(C)C)o1 | -7.1 | 4.5 | -1.2
9 | CC(C)[N+]1(C)[C@@H]2CC[C@@H]1CC(OC(=O)C(CO)c1ccccc1)C2 (stereo partly drawn) | -12.3 | 1.6 | -1.0

Some values from above:
CCOC(=O)c1ncn2c1CN(C)C(=O)c1cc(F)ccc1-2 – CHO parental Ca = -10.5
COc1ccc([C@@H]2Sc3ccccc3N(CCN(C)C)C(=O)[C@@H]2OC(C)=O)cc1 – CHO parental Ca = -9.8
CC1(C)S[C@@H]2[C@H](NC(=O)[C@H](N)c3ccccc3)C(=O)N2[C@H]1C(=O)O – TAAR1 antagonist = 0.8&-6.1
Cc1ccc(S(=O)(=O)NC(=O)NN2CCCCCC2)cc1 – TAAR1 antagonist = -2.2
CN1[C@@H]2CCC[C@H]1CC(NC(=O)c1nn(C)c3ccccc13)C2 (stereo partly drawn) – OXTR potentiate = -0.5

Limited to OXTR potentiate, for some of the entries so far:
no. | canonical_smiles | OXTR potentiate
18 | C#C[C@]1(O)CC[C@H]2[C@@H]3CCc4cc(OC)ccc4[C@H]3CC[C@@]21C | -8.5
19 | Cc1cc2cc3c(C)cc(=O)oc3c(C)c2o1 | -1.5

Further results:
entry | smiles | TAAR1 antagonist | CHO parental Ca | OXTR potentiate
31 | CCC(=O)OC1(C(=O)CCl)[C@@H](C)C[C@H]2[C@@H]3CCC4=CC(=O)C=C[C@]4(C)[C@@]3(F)[C@@H](O)C[C@@]21C (stereo partly drawn) | -22.4 | -13.1 | -2.5
32 | Cc1[nH]c(=O)c(C#N)cc1-c1ccncc1 | -0.3 | -6.7 | -1.6
33 | Cn1c(=O)c2c(ncn2C)n(C)c1=O | -1.6 | -4.1 | -6.4
34 | COc1cc(CNC(=O)CCCC/C=C/C(C)C)ccc1O | -16.2 | -13.7 | 2.2
35 | Cc1cc(=O)n(-c2ccccc2)n1C | 7.4 | 6.8 | -5.2
36 | O=c1[nH]cnc2c1ncn2[C@H]1CC[C@@H](CO)O1 | 11.0 | -7.4 | 8.0
37 | COc1ccc2c(c1)c(CC(=O)OCC(=O)O)c(C)n2C(=O)c1ccc(Cl)cc1 | -15.5 | 3.9 | -2.4

Full records from above. Order of screens: TAAR1 antagonist	CHO parental Ca	OXTR potentiate
COc1cc(CNC(=O)CCCC/C=C/C(C)C)ccc1O in the list: -16.2	-13.7	2.2
O=c1[nH]cnc2c1ncn2[C@H]1CC[C@@H](CO)O1 in the list: 11.0	-7.4	8.0
CCC(=O)OC1(C(=O)CCl)[C@@H](C)C[C@H]2[C@@H]3CCC4=CC(=O)C=C[C@]4(C)[C@@]3(F)[C@@H](O)C[C@@]21C (stereo partly drawn) in the list: -22.4	-13.1	-2.5
